# TRPML1 agonist – agonists of human TRPML1 channel. Q9GZU1. TRPML1-expressing cells, Ca2+ dye fluorescence, FDSS; host cell line not named in the record; reference of the full effect not given here. activation, % (no concentration beside the values). actives 0.12% (n = 410,000). AID 624414; in the data active = activation above about 50%; inconclusive = about 30% to 50%; inactive = below about 30%; also: 0% is about no effect; the text of the record puts the active cut at 80%
# Target sequence (Q9GZU1 whole entry, looked up): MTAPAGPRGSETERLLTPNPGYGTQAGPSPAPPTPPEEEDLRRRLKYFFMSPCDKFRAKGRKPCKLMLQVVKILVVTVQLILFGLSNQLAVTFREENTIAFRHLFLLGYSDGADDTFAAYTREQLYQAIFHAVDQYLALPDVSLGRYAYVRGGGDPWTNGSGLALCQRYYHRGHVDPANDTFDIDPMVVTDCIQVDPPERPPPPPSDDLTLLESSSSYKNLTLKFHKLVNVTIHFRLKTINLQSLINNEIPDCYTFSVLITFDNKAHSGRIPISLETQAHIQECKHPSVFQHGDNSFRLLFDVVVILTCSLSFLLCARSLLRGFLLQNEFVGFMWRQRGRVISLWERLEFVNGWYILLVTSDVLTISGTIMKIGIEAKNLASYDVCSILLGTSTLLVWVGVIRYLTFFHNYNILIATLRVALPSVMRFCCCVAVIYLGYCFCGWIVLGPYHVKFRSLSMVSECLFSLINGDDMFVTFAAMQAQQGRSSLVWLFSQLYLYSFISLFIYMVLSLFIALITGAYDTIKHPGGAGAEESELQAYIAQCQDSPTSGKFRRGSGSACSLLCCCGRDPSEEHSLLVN
#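 Calcium fluorescence on an FDSS kinetic reader gave the read-out. Tet-induced TRPML1-DL cells were plated overnight, dye-loaded (Ca8 with quencher, 45-90 min, room temperature, dark), then read 110 s after compound addition, and again 110 s after 4uM final 54-4 (EC80).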
# Six1-Eya2 blk – blocks human Six1 binding to Eya2; activity change, % (concentration not given with the values); AID 651725; AlphaScreen GST-Six1/His-Eya2 binding, biochemical; active compounds read low; control for the full effect not named in the record; Q15475+O00167; actives 0.56% (n = 360,000); in the data active = activity change below about -65%; inconclusive = about -30% to -65%; inactive = above about -30%; also: % is scaled to controls: 0 for no effect and ±100 for the full control effect
#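 Compounds are tested against tagged Six1 and Eya2 proteins bridged by glutathione donor and nickel acceptor beads; after a one-hour incubation at 37 °C without light, AlphaScreen emission is recorded.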
# D2 potentiator – positive allosteric modulators of human D2 dopamine receptor. DiscoveRx D2 beta-arrestin cells, luminescence, 90 min; 100% = 57 uM dopamine signal. potentiation, % (no concentration beside the values). actives 0.23% (n = 360,000). AID 624464; active = potentiation of 50% or more; inconclusive = 30% to 50%; inactive = 30% or less;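 also: compound concentration not given in the record; tested on top of an EC20 dose of dopamine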
# Target sequence (P14416 whole entry, looked up): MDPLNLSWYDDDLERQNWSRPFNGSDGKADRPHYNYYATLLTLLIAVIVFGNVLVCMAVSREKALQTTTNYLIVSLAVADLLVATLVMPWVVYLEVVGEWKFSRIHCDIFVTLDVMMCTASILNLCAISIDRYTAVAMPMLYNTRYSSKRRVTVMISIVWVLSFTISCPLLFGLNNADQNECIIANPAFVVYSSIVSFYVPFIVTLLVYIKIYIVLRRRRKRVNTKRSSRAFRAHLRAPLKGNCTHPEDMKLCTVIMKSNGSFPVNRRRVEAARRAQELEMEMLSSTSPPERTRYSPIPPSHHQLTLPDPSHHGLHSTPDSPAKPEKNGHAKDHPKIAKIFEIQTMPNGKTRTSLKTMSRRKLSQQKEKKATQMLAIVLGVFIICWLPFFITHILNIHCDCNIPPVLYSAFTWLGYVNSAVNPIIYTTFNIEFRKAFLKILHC
#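 D2 cells co-treated with compound plus 50 nM dopamine (EC20) for 90 min at 37 deg C to detect potentiation. Beta-arrestin recruitment was read as enzyme-fragment luminescence after 1 h at ambient temperature. Full response was set by 57 uM dopamine.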
# TRPML1 inh – inhibitors of human TRPML1 channel; activity change, negative = inhibition, % (test concentration not listed); actives 0.02% (n = 390,000); AID 624415; Q9GZU1; TRPML1-inducible cells, Ca2+ dye fluorescence, FDSS; active compounds read low; inhibition of EC80 agonist-evoked calcium signal; in the data active means activity change below about -50%; inconclusive means about -30% to -50%; inactive means above about -30%;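 also: stimulus is agonist 54-4 at its EC80 concentration; % is scaled to controls: 0 for no effect and ±100 for the full control effect; compound concentration not given in the record; the text of the record puts the active cut at -80%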
#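 TRPML1-DL cells, Tet-induced overnight (~16 h, 37 °C) at 1,500 cells/well, were loaded with Ca8 no-wash dye plus quencher for 45-90 min at room temperature. Compounds were pinned during FDSS kinetic reading; agonist 54-4 at EC80 (4 uM final) then added.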
# D2 agonist – activates the human D2 dopamine receptor; P14416; DiscoveRx PathHunter D2 beta-arrestin, luminescence, 90 min; 100% = 57 uM dopamine signal; activation, % (no concentration beside the values); actives 0.084% (n = 360,000); in the data active = activation above about 40%; inconclusive = about 15% to 40%; inactive = below about 15%; also: compound concentration not given in the record; the text of the record calls up to 30% inactive
#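 Agonist mode: compounds alone added to overnight-plated D2 PathHunter cells for 90 min at 37 C, with 57 uM final dopamine (EC100) defining full response. Beta-arrestin recruitment detected by chemiluminescent reagent, read after 1 h at ambient temperature.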
# PINK1 expr mod – PINK1 expression modulation | PINK1 immunofluorescence, high-content cytometry, 24 h | Potency, µM (doses to about 76.6 µM), for the others: at the highest dose activation (PINK1 increase), most hits filed as activators | actives 0.2% (n = 410,000) | AID 624263; active = well fitted activation curve with a large enough effect; inconclusive = small, poorly fitted or top-dose-only effect; inactive = flat fitted curve, though single readings scatter; cell line not stated here;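 also: potency is read from the fitted curve at half-maximal effect; % of control where 0% means no effect; nearly all actives have a fitted effect of over 65% in size; a mitochondrial uncoupler was the plate control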
#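 Compound titrations (5 concentrations, 24 h) on a stable cell line; DMSO and CCCP controls. Endpoint: fixed-cell PINK1 immunofluorescence with mitochondrial, cell and nuclear markers, scanned by microplate cytometer.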
# * hit, by the source's call; ? = inconclusive; . = no result given; & = joins results of further samples; [ ] = another dose, or the depositor's remark. The order is random; overall some 1% were active at least once.
canonical_smiles,Six1-Eya2 blk,TRPML1 inh,PINK1 expr mod,D2 agonist,D2 potentiator,TRPML1 agonist
CCOc1ccc(S(=O)(=O)c2c(C(=O)c3ccc(CC)cc3)cnc3ccc(C)cc23)cc1,.,-4,1.9%,.,.,7.4
CC1(C)CC(NC(=O)COc2ccc(Cl)cc2Cl)CC(C)(C)N1,3,-2,0.0%,-0.2,-12,0.8
CCc1ccc(C(=O)NNc2ccc(F)cc2)cc1,8,5,-1.0%,-11,-12,1.4
CN(C)c1c([N+](=O)[O-])cc(N2C(=O)C=CC2=O)cc1[N+](=O)[O-],-8,5,-2.4%,-2.8,-17,0.2
Cc1cccc(C(C)C)c1NC(=O)COC(=O)CN1C(=O)C2CC=CCC2C1=O (stereo unspecified),7,15,0.0%,-3.8,-11,0.5
COCCn1c(N)c(N(Cc2ccccc2)C(=O)c2oc3ccccc3c2C)c(=O)[nH]c1=O,0,-6,0.4%,1.3,1,0.1
Cc1ccc(Cl)cc1N1CCN(C(=O)c2cccn3c(=O)c4cc(Cl)ccc4nc23)CC1,.,6,0.1%,.,.,-0.3
COCCNC(=O)C(c1cccc(OC)c1)N(C(=O)Cn1nnc2ccccc21)c1cccnc1 (stereo unspecified),5,-6,-1.2%,0.8,-4&23,-0.5
CCC(C)NC(=O)CSc1nnc(-c2ccoc2C)n1CC1CCCO1 (stereo unspecified),6,2,3.2%,-0.8,-11,-1.1
N#CCC(=N)N1CCN(c2ccc(F)cc2)CC1,-10,-6,0.9%,-0.5,-6,0.1
CNS(=O)(=O)c1cccc(C(=O)OCC(=O)c2ccc3c(c2)OCCO3)c1,-3,-21,-2.7%,-20,4,1.1
CN(CC(=O)Nc1cccc(F)c1)C(=O)/C=C/c1cn(Cc2ccccc2)nc1-c1cccnc1,-16,1,-0.2%,1.7,-17,3.1
O=C(c1cccs1)N(CCN1CCCCC1)CC1CCCN(C2CCCC2)C1 (stereo unspecified),0,-8,0.8%,-2.3,-20,0.0
CCOCCCNC(=O)c1ccc2c(c1)ncn2-c1ccccc1OC,2,-12,1.2%,0.0,-16,0.1
Cc1cc(N2O[C@H]3C=C[C@@H]2C3)no1,9,15,0.3%,2.6,.,-0.3
O=C(CSc1ccccc1)N1CCN(c2ccccc2)CC1,-1,17,0.5%,-0.8,-1,0.9
O=C(c1cccc(F)c1)N1CCCC(C(=O)N2CCCCCC2)C1 (stereo unspecified),-1,-10,1.9%,0.1,-1,0.0
COc1ccc2c(c1)C(C)=CC(C)(C)N2C(=O)CNCc1ccc2c(c1)OCO2,-16,20,24%[38.3 µM],-0.4,-24,0.8
O=C(NNc1ccccc1C(F)(F)F)c1cccs1,6,24,0.5%,6.4,5,-0.3
COc1cccc(N=Nc2ccc(O)c3ncccc23)c1,-70*,6,12%,-19,-19,3.4
CCN1CCc2c(sc(NC(=S)NC(=O)c3ccco3)c2C(N)=O)C1,-9,-14,-0.3%,-9.7,-19,-0.1
Nc1nnc(SC2CC(=O)N(c3ccccc3)C2=O)s1 (stereo unspecified),5,-5,0.1%,-2.2,9,0.9
O=C(c1cc(Cl)nc2ccccc12)N1CCCCC1,-1,-7,-1.8%[38.3 µM],-0.3,-30,0.1
CCOc1ccc2[nH]c(=O)c(CN(Cc3ccc(F)cc3)C(=O)c3ccco3)cc2c1,-18,17,-0.4%,-2.4,-20,-0.2
O=S(=O)(c1ccc2ccccc2c1)N1CCN(C2CCN(Cc3ccccc3)CC2)CC1,-12,-5,-44%[inhibitor][38.3 µM],-2.8,-18,-0.7
Cc1c(NS(=O)(=O)c2ccccc2)c(=O)n(-c2ccccc2)n1C,1,-4,-1.0%,-0.8,-2,-0.1
O=C(NC(=O)N1CCN(c2ccc([N+](=O)[O-])cn2)CC1)c1ccccc1F,10,40,2.9%,-4.1,-5,1.8
Cc1nc(-c2noc(-c3cccc(Cl)c3)n2)c(C(F)(F)F)o1,136,3,1.2%,-2.6,-14,0.5
Cc1ccc2c(C)nc(Nc3nc(CSc4nnc(C)s4)cc(=O)[nH]3)nc2c1,-6,26,1.1%[38.3 µM],-2.2,-1,0.2
Cc1ccc2nc(-c3ccc(Br)cc3)cc(C(=O)NCC3CCCO3)c2c1 (stereo unspecified),-5,-1,5.5%,-3.0,1,-1.0
COc1ccc(-c2cc(C(=O)NCCCN3CCOCC3)no2)cc1,5,-6,4.0%,-6.0,-5,-1.1
Cc1cccc(NC(=O)Cn2c(=O)n(CC3CCC(C(=O)NCCc4ccccc4)CC3)c(=O)c3ccccc32)c1 (stereo unspecified),.,-4,1.3%,.,.,-0.2
COc1cc(/C=C/C2=NNC(=O)CC2)cc(OC)c1OC,5,-7,-0.1%,3.3,-8,-0.4
Cc1ccc(C(=O)OCC(=O)NC2CCCc3ccccc32)o1 (stereo unspecified),2,3,1.8%,1.1,-7,1.5
Cc1ccc(/C=C/C(=O)OCC(=O)NCCc2ccc(S(N)(=O)=O)cc2)o1,0,-7,-1.4%,-1.5,-4,-0.3
COc1ccc(CNC(=O)c2nc(S(=O)(=O)Cc3ccccc3)ncc2Cl)cc1,-28,33&7,-2.3%&4.4%,-10,-31,3.8&-0.9

# Some of these compounds in order of the D2 agonist value, ascending.
SMILES,D2 agonist
COc1ccc(-c2cc(C(=O)NCCCN3CCOCC3)no2)cc1,-6.0
O=S(=O)(c1ccc2ccccc2c1)N1CCN(C2CCN(Cc3ccccc3)CC2)CC1,-2.8
Cc1ccc2c(C)nc(Nc3nc(CSc4nnc(C)s4)cc(=O)[nH]3)nc2c1,-2.2

# Additional records.
canonical_smiles,Six1-Eya2 blk,TRPML1 inh,PINK1 expr mod,D2 agonist,D2 potentiator,TRPML1 agonist
COc1cc2c(cc1OC)C(c1cccc(F)c1)CC(=O)N2 (stereo unspecified),2,-4,-1.7%,2.1,2,0.0
O=C(NC(=S)Nn1cnnc1)c1ccccc1,1,6,-0.5%,-5.0,-8,0.2
Cc1ccc(N2CCN(S(=O)(=O)c3ccc(Cl)c4ccccc34)CC2)c(C)c1,.,11,0.3%,.,.,2.0
Cc1ccc2cc(CCNC(=O)CCCc3ccccc3)c(=O)[nH]c2c1C,-5,10,-0.9%,3.6,-9,0.3
CN1C[C@@H]2[C@@H]3C(=O)N(C)C(=O)[C@@H]3[C@](C)(C1=O)N2C(=O)c1ccc(F)cc1,1,2,2.6%,-0.4,2,-0.5
COCCNc1nnc(SCC(=O)c2cc(C)n(C3CC3)c2C)s1,-2,0,7.9%,0.0,-4,-0.1
COCCCNC(=O)CSc1nc2c(sc3ccccc32)c(=O)n1CCCC(=O)NCC1CCCO1 (stereo unspecified),-5,-5,2.1%,-1.9,5,0.5
CCCNS(=O)(=O)c1ccc(OCC(=O)N(C)Cc2ccccc2)cc1,2,-10,-0.7%,-4.0,-5,1.5
O=C(COC(=O)C1CCN(/C=C/C(=O)C(F)(F)F)CC1)Nc1ccccc1,-1,-10,1.8%,-1.5,-15,-0.4
CC(=O)N1CCc2cc(S(=O)(=O)NC(Cc3ccccc3)C(=O)O)ccc21 (stereo unspecified),0,3,2.6%,-4.4,-9,-0.3
O=C(N/N=C/C1CC=CCC1)c1ccc(O)cc1O (stereo unspecified),-2,-1,-0.8%,-1.3,-19,0.6
CCN(Cc1ccccc1)C(c1cc2cc(C)ccc2[nH]c1=O)c1nnnn1CCOC (stereo unspecified),3,8,2.3%,-2.4,-4,0.9
Cc1ccc(C)c(NC(=O)Cn2c(=O)n(Cc3ccc4c(c3)OCO4)c(=O)c3oc4ccccc4c32)c1,.,11,0.3%,.,.,0.9
CNC(=O)c1ccc(-c2sc3nc(N4CCOCC4)c4c(c3c2N)CCCC4)o1,-9,5,11%,9.1,5,-0.4
CC(=O)c1ccc(Nc2nc(C(N)c3ccccc3Cl)cs2)cc1 (stereo unspecified),-1,50,4.0%,3.2,-8,-0.3
Cc1ccc(NC(=S)NC(=O)c2ccc(Br)o2)c(C)c1,6,8,5.0%,-1.2,-4,-0.6
CC(=O)Nc1ccc(NCc2nnc3n2CCCCC3)cc1,.,28,-4.5%,.,.,0.5
Cc1cc(C)cc(-n2ccnc2SCC(=O)Nc2ccc3c(c2)OCCO3)c1,-23,-2,-1.0%,-2.9,-2,2.5
CCN(CC)S(=O)(=O)c1ccc2c(c1)nc(CCC(=O)OCC(=O)Nc1c(F)cccc1F)n2C,-1,-7,1.5%,5.1,-8,5.3
O=C(/C=C/c1cccc([N+](=O)[O-])c1)OCC(=O)N1CCCCC1,?,-4,-0.4%,1.4,4,-0.3
O=C(Cc1ccccc1)NCc1ccncc1,0,20,-0.5%,2.3,4,-0.4
C/C(=N\S(=O)(=O)c1ccc(C)cc1)Nc1cc(C(C)C)c(O)cc1C,-7,-1,-2.0%,6.2,-4,0.4
CCCCOc1ccc(C(=O)Nc2ccc(S(=O)(=O)Nc3nc(C)cc(C)n3)cc2)cc1,.,16,10.0%,.,.,1.9
COc1ccccc1S(=O)(=O)Nc1cccc(S(=O)(=O)N2CCCC2)c1,-4,11,0.7%,2.8,2,-0.6
COc1ccc(CN(C(=O)c2cccs2)c2nccs2)cc1OC,-7,20,-2.3%,3.2,2,1.6
CCOC(=O)C1OC2(CCCC2)OC1C(=O)OCC (stereo unspecified),0,-5,-0.7%,2.4,-26,-0.5
CCc1nc2c(OCc3cc(Cl)cc(Cl)c3)cccn2c1N(C)C(=O)c1ccc(C)cc1,-11,.,17%,-1.3,-6,-0.2
CC(=O)OC1=CN(Cc2ccccc2)S(=O)(=O)c2ccccc21,.,6,-0.5%,.,.,2.5
CC(C)(O)C#Cc1ccc(C(=O)NC2CCCCC2)s1,0,-1,-0.1%,-5.1,3,-0.3
COc1cc(Cl)cc(C=O)c1OCC(=O)O,5,19,2.8%,5.9,-3,2.6
COc1ccc(Cn2c(C(=O)O)c(CNC3CCCCCC3)c3ccc(OC)cc32)cc1,.,-8,-0.2%,.,.,0.8
O=C(c1ccc(Cl)cc1)c1coc2ccc(O)cc12,-1,-3,-2.0%,-3.3,-3,-0.8
O=C(CSc1nc2ccccc2c(=O)n1-c1ccccc1Cl)NCC1CCCO1 (stereo unspecified),4,-2,3.6%,-8.0,-4,0.1
CCN(c1ccccc1)P(=O)(Nc1ccccc1)Nc1ccccc1,3,-9,0.8%,-3.8,-3,0.9
CN=c1oc2ccc(Cl)cc2cc1C(N)=O,-1,-8,0.9%,-2.7,0,-0.3
CCc1ccc(NC(=O)CCCc2nnc3n(CCCOC)c(=O)c4sccc4n23)cc1,.,30,0.3%,.,.,0.3
